Beta2AR agonist: beta2AR agonists driving receptor internalization, primary screen, cell-based, FAP fluorogen, flow cytometry; Beta-2 adrenergic receptor (Homo sapiens), P07550; Am2.2-beta2AR cells; reference of the scale not given here; response, % (test concentration not listed); hit rate 0.43% among 340,000;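 active means response above a set limit, near 3 SD of response in nonfluorescent compounds, cut at about 42% in these data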;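 further: stock transfer was 100 nL into about 11 µL; a reference agonist was the positive control; negative values mostly stem from fluorescent compounds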
Target sequence (P07550 whole entry, looked up): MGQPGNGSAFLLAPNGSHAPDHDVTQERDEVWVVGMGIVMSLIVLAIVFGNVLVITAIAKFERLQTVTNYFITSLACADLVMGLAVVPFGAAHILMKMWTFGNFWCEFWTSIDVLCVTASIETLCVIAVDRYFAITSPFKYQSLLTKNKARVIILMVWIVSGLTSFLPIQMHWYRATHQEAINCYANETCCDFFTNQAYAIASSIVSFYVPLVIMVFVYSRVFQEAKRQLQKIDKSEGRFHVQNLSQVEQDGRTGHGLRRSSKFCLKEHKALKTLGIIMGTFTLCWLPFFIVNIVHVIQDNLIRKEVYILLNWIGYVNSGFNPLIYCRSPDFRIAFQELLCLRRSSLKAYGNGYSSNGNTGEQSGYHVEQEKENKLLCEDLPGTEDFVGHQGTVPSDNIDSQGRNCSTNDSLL
T cruzi repl: inhibitors of intracellular T. cruzi growth, primary screen, luminescence, NIH3T3 host cells. T. cruzi beta-gal in NIH3T3, 90 h. inhibition, % (test concentration not listed). hit rate 1.4% among 300,000;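 active means mean inhibition across valid replicates above about 55%, limit read from the data; inconclusive means mean below that limit but half or more replicates reach it; inactive means mean below it, under half of replicates reach it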;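 further: signal also drops with host cell toxicity which is not excluded here; 0% = plate median of DMSO wells and 100% = zero luminescence signal; higher percent means less beta-gal luminescence so fewer parasites; stock transfer was 50 nL into about 50 µL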
Beta cell apopt: inhibitors of cytokine-induced beta cell apoptosis, primary screen, luminescence; INS-1E cytokine-induced death, ATP luminescence, 48 h; percent of positive-control rescue, neutral wells zero; protection from apoptosis, % (test concentration not listed); hit rate 0.8% among 300,000;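 active means all replicates at 75% or more, or half of them and the mean; inconclusive means half reach 75% but not the mean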;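 further: 0% = cytokine-treated negative control wells and 100% = positive control rescue; higher means more ATP so stronger rescue from cytokine killing; wells of about 40 µL received 100 nL stock; the first replicate is given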
Calb FLC: C. albicans growth inhibition with fluconazole, primary screen, CaCi-2 strain, Alamar Blue fluorescence | C. albicans CaCi-2 (fluconazole-resistant clinical isolate) + fluconazole, 48 h | growth inhibition, % (test concentration not listed) | hit rate 0.57% among 300,000;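 active means most replicates above 75%; inconclusive means exactly half above 75%; inactive means most below 75%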;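 further: all wells also contain fluconazole at 8 µg/ml as a sub-toxic cotreatment; 0% = median of DMSO wells and 100% = median of geldanamycin control wells; wells of about 8 µL received 7.5 nL stock; the first replicate is given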
Ecoli rRNA inh: reduced GFP signal of wild-type E. coli, primary screen, bacterial rRNA inhibitor project, GFP/RFP fluorescence, OD600, single point | E. coli WT GFP vs humanized-ribosome RFP mutants, 24 h; active compounds read low; DMSO median 0, no signal -100 | GFP signal change (wild-type ribosome), % (test concentration not listed) | hit rate 1.6% among 350,000 | AID 720706, 2013;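 active means significant combined selectivity score with lowered wild-type GFP, culture density cut under 30%, mutant RFP and density less affected; inactive means any of these conditions unmet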; further: one replicate is shown; some compounds called inactive have numbers as strong as hits
ALR inh: inhibitors of human ALR sulfhydryl oxidase, primary screen, biochemical, H2O2 detection, HRP-luminol luminescence, single point | purified ALR, DTT oxidation | inhibition, % (no concentration beside the values) | hit rate 3.8% among 290,000;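 active means mean and each replicate at 75% or more; inconclusive means only one of the two met; inactive means neither met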;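 further: stock transfer was 7.5 nL into about 7.5 µL; 0% = neutral wells and 100% = wells with inactivated enzyme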
Target sequence (P55789 whole entry, looked up): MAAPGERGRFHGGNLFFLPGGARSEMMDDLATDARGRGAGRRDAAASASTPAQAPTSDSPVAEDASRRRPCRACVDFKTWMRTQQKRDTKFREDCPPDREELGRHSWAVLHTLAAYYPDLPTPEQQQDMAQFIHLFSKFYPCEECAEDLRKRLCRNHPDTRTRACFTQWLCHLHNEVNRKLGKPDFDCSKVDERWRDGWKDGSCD
Bfl-1 A1 inh: caspase 3/7 activation in MEF A1-2A-BIM cells, primary screen, A1 inhibitor project, cell-based, luminescence, HTS | Caspase-Glo 3/7 luminescence, 3 h; percent of clofoctol response, vehicle zero | caspase activation, % (concentration not given with the values) | hit rate 0.066% among 330,000 | AID 2462, 2010;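 active means over half of replicate activation scores above 10%, or exactly half above 10 with the replicate mean above 10; inconclusive means replicate mean below 10 yet half the replicates above 10; inactive means over half of replicates below 10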;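 further: wells of about 30 µL received 50 nL stock; many hits fall short of the cut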
LANA-H2B inh: blockers of LANA interaction with H2A/H2B – biochemical, FP readout, HTS, primary screen; Protein LANA1 (Human herpesvirus 8 type P (isolate GK18)), Q9QR71; cell-free LANA-H2A/H2B peptide, fluorescence polarization; inhibition, % (concentration not given with the values); hit rate 0.6% among 320,000; AID 2629, 2010; in the data active means inhibition mostly above about 10%, no sharp cut-off; inactive means mostly below about 6.7%;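 further: stock transfer was 7.5 nL into about 10 µL; 0% = median of vehicle wells and 100% = median of positive control wells; one replicate is shown; the record names a cut of 25% in any replicate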
Ecoli rRNA inh OD600: also measured in Ecoli rRNA inh; calls as there; OD600 change, %; measured here: OD600 growth;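 optical density of the mix in the first replicate; 0 = DMSO median and -100 = no signal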
Ecoli rRNA inh RFP: further read-out of Ecoli rRNA inh, marked with its call; RFP signal change, %; measured here: RFP humanized mutant strains;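 first replicate; 0 = DMSO median and -100 = no signal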
An asterisk follows results filed as active; ? = inconclusive; · = not tested or not shown. This is a subset; the hit share may differ from the screen's.

(1) O=C(N/N=C/c1cc(Cl)cc([N+](=O)[O-])c1O)c1cc(-c2ccccn2)nc2ccccc12
(2) CCCC(c1nnnn1C1CCCCC1)N1CCN(C2CCCC2)CC1 (stereo not drawn)
(3) Brc1cccc(OCCn2ccnc2)c1
(4) COC(C[C@@H]1O[C@H]1C(=O)[C@@H](C)OCc1ccccc1)OC
(5) Cc1ccc(S(=O)(=O)Nc2ccc(-n3cnnn3)cc2)cc1
(6) CNC(=O)c1oc(-c2ccccc2)nc1C
(7) O=C(c1ccc(COCC(F)(F)F)o1)N1CCCC1
(8) Cc1cccc(C)c1-n1nnnc1SCC(=O)c1c(N)n(C2CC2)c(=O)[nH]c1=O
assay / entry,1,2,3,4,5,6,7,8
Beta2AR agonist,9.8,-9.0,1.4,2.5,-0.2,2.7,2.0,0.6
T cruzi repl,20.8,-22.5,-9.0,-12.0,-0.5,-15.1,-1.1,·
Beta cell apopt,68.3,0.3,-1.5,-10.2,-0.8,-10.6,-0.6,-1.5
Calb FLC,3.9,17.4,-3.8,-3.5,-7.5,9.9,-14.5,·
Ecoli rRNA inh,10.5,·,·,6.9,8.4,14.4,5.5,2.5
Ecoli rRNA inh OD600,3.3,·,·,16.1,4.5,12.8,2.6,8.7
Ecoli rRNA inh RFP,1.4,·,·,8.0,1.8,0.2,5.1,-2.4
ALR inh,-0.3,8.2,-3.2,45.7,-0.4,·,-2.8,5.7
Bfl-1 A1 inh,-0.7,0.1,-0.4,-0.5,-1.3,-1.1,0.9,-0.7
LANA-H2B inh,-6.4,7.9,-13.1,-2.1,-2.3,-2.6,-4.3,-1.4

(9) O=C(CN1C(=O)NC(Cc2c[nH]c3ccccc23)C1=O)NCCc1ccccc1 (stereo not drawn)
(10) CCS(=O)(=O)c1ccc(O)c(NC(=O)COc2ccc(Br)cc2)c1
(11) CC(=O)c1ccc(NC(=O)C(C)OC(=O)CCCN=C2NS(=O)(=O)c3ccccc32)cc1 (stereo not drawn)
(12) CCOC(=O)C1CCN(C(=O)Nc2cccc(OC)c2)CC1
(13) COc1ccc(NC(=O)CC2C(=O)N(c3ccc(OC)cc3)C(=O)N2C(C)C)cc1 (stereo not drawn)
(14) CN(Cc1ccno1)Cc1cn(Cc2ccccc2)nc1-c1ccc2c(c1)OCO2
(15) Cc1ccc(CN2CCN(/N=C\C=C\c3ccccc3)CC2)cc1
(16) CCSc1cnn(-c2ccccc2)c(=O)c1Cl
assay / entry,9,10,11,12,13,14,15,16
Beta2AR agonist,8.3,-5.0,1.1,-3.4,8.2,14.0,-6.3,-1.9
T cruzi repl,-0.2,14.1,-14.3,4.9,-6.6,8.0,-5.9,-26.7
Beta cell apopt,-1.1,0.2,1.9,·,-1.0,-3.2,-4.5,-2.5
Calb FLC,4.8,-12.9,4.9,0.1,7.5,13.6,-28.0,0.2
Ecoli rRNA inh,8.6,-39.0,-5.3,4.6,·,-4.2,-27.8,4.3
Ecoli rRNA inh OD600,5.0,-53.7,-13.0,-7.0,·,-5.0,-34.4,2.1
Ecoli rRNA inh RFP,0.5,-10.5,5.9,1.7,·,-1.2,-2.0,-3.2
ALR inh,-4.9,7.8,1.2,·,-32.1,·,-7.0,6.8
Bfl-1 A1 inh,0.9,-0.5,0.4,0.4,-0.2,1.1,0.5,1.4
LANA-H2B inh,-1.6,-2.4,0.6,-2.2,-1.5,1.1,6.9,-3.7

4 entries from above, sorted by length of the SMILES, lowest first.
(12) CCOC(=O)C1CCN(C(=O)Nc2cccc(OC)c2)CC1
(15) Cc1ccc(CN2CCN(/N=C\C=C\c3ccccc3)CC2)cc1
(14) CN(Cc1ccno1)Cc1cn(Cc2ccccc2)nc1-c1ccc2c(c1)OCO2
(11) CC(=O)c1ccc(NC(=O)C(C)OC(=O)CCCN=C2NS(=O)(=O)c3ccccc32)cc1 (stereo not drawn)
assay / entry,12,15,14,11
Beta2AR agonist,-3.4,-6.3,14.0,1.1
T cruzi repl,4.9,-5.9,8.0,-14.3
Beta cell apopt,·,-4.5,-3.2,1.9
Calb FLC,0.1,-28.0,13.6,4.9
Ecoli rRNA inh,4.6,-27.8,-4.2,-5.3
Ecoli rRNA inh OD600,-7.0,-34.4,-5.0,-13.0
Ecoli rRNA inh RFP,1.7,-2.0,-1.2,5.9
ALR inh,·,-7.0,·,1.2
Bfl-1 A1 inh,0.4,0.5,1.1,0.4
LANA-H2B inh,-2.2,6.9,1.1,0.6

Remaining list, next part:
(17) COc1ccc(NC(=O)CSc2nnc(-c3ccccn3)n2Cc2ccco2)cc1OC
(18) O=C(CN1C2=NCCN2c2ccccc21)C12CC3CC(CC(C3)C1)C2
(19) O=C(O)c1ccccc1-n1ncc2c1/C(=C/c1ccc(Cl)cc1)CC2
(20) COc1ccc(/C=C/C(=O)NCc2ccccn2)cc1
(21) CCOCCCNC(=O)c1cc2c(=O)[nH]c3ccccc3c2s1
(22) CCCCn1c(SCC(=O)NCCOC)nc2ccc(N3CCOCC3)cc2c1=O
(23) COc1cccc(C2CC(C(F)(F)F)n3ncc(C(=O)O)c3N2)c1 (stereo not drawn)
(24) CC(Sc1ccc(Cl)cc1)C(=O)Nc1ccccc1-c1ccccc1 (stereo not drawn)
assay / entry,17,18,19,20,21,22,23,24
Beta2AR agonist,-0.8,0.4,·,4.6,-5.1,7.7,-0.1,1.7
T cruzi repl,-4.2,9.7,-13.1,-7.6,2.2,9.1,-0.2,7.6
Beta cell apopt,0.2,·,-1.0,-1.7,5.5,·,-7.7,0.6
Calb FLC,0.4,2.4,-6.3,3.8,-2.6,21.2,3.5,-6.4
Ecoli rRNA inh,·,·,-29.2,·,-4.7,·,·,·
Ecoli rRNA inh OD600,·,·,-40.3,·,-7.5,·,·,·
Ecoli rRNA inh RFP,·,·,-15.8,·,-0.4,·,·,·
ALR inh,97.2*,98.4*,-7.8,-44.0,-2.1,3.4,0.9,·
Bfl-1 A1 inh,-0.1,-1.3,0.2,0.6,-0.2,0.3,-0.5,0.6
LANA-H2B inh,3.0,2.7,-0.9,3.0,-4.2,0.1,5.0,10.5

(25) CCOC(=O)c1c(O)c(Cl)c(C)[nH]c1=O
(26) O=C(NCc1cccnc1)Nc1ccc(Br)cc1
(27) Cc1cc(C)n(CC(O)COc2cccc(OCC(O)Cn3nc(C)cc3C)c2)n1 (stereo not drawn)
(28) O=C(NC(Cc1ccccc1)C(=O)O)c1ccc(S(=O)(=O)N2CCCC2)cc1 (stereo not drawn)
(29) C/C(=N/NC(=O)c1ccoc1C)c1ccc(N2CCOCC2)cc1
(30) CN(C)C(=O)c1ccc(Nc2nnc(-c3ccc(O)cc3)c3ccccc23)cc1
(31) COc1ccccc1CCNC(=O)c1ccc(NC(=O)CC2SC(N3CCCC3)=NC2=O)cc1 (stereo not drawn)
(32) CC(=O)N(C)Cc1ccc(C(=O)CSc2nnc(C3CC3)n2C2CC2)cc1
assay / entry,25,26,27,28,29,30,31,32
Beta2AR agonist,3.9,-6.1,-2.0,12.3,9.4,4.0,-10.5,-0.4
T cruzi repl,-4.9,14.8,1.2,-5.3,0.7,3.1,-7.2,·
Beta cell apopt,-5.0,-6.2,2.6,-8.5,7.6,8.4,0.4,-0.9
Calb FLC,19.2,0.9,5.1,-3.7,-9.1,-3.2,-4.1,·
Ecoli rRNA inh,10.9,-14.4,·,·,-1.0,-24.1,-2.3,3.6
Ecoli rRNA inh OD600,12.1,-16.1,·,·,0.5,-25.0,-1.5,9.8
Ecoli rRNA inh RFP,0.9,-2.0,·,·,-1.7,-4.7,0.6,-2.8
ALR inh,6.3,0.0,-23.8,0.8,34.3,73.9,-2.5,45.8
Bfl-1 A1 inh,0.1,-0.9,-0.3,-0.3,-1.2,0.8,1.1,-0.8
LANA-H2B inh,2.0,1.2,-2.5,4.0,5.7,-1.4,-1.7,-5.0

(33) CCN1CCc2nc(NC(=O)Cc3ccc4c(c3)OCCO4)sc2C1
(34) C=CCn1c(-c2ccc(C)cc2)nc2ccccc21
(35) CCC(C(=O)NCc1cccs1)n1nc(C)n2c(cc3occc32)c1=O (stereo not drawn)
(36) CCOc1cccc(C(=O)Nc2ccc(N3CCCC3)cc2)c1
(37) Cc1ccc(-n2nc3ccc(N)cc3n2)c(C)c1
(38) O=C(Nc1cccnc1)c1cn(-c2ccccc2)nc1-c1cccs1
(39) O=C(c1ccc(CS(=O)c2ccccc2Cl)o1)N1CCN(c2ccccc2)CC1 (stereo not drawn)
(40) CCCOc1ccc(N2C(=O)CC(SCCc3nc4ccccc4[nH]3)C2=O)cc1 (stereo not drawn)
assay / entry,33,34,35,36,37,38,39,40
Beta2AR agonist,2.5,-10.5,11.9,14.3,9.7,-17.0,13.4,-22.2
T cruzi repl,4.9,10.7,2.8,13.5,15.8,11.6,-18.1,-12.5
Beta cell apopt,-4.3,13.2,-2.5,14.0,·,0.3,6.6,-4.7
Calb FLC,-3.8,?,12.3,-18.9,2.3,49.1,30.3,-0.3
Ecoli rRNA inh,·,·,1.3,-19.1*,-9.6,·,-11.4,-30.6*
Ecoli rRNA inh OD600,·,·,6.1,6.9*,7.0,·,-16.4,-19.2*
Ecoli rRNA inh RFP,·,·,-2.5,1.2*,4.1,·,-3.0,0.1*
ALR inh,15.4,·,-0.3,-9.8,-8.3,6.6,?,-0.5
Bfl-1 A1 inh,1.0,-0.1,1.1,0.6,-2.1,-0.4,-0.5,-0.5
LANA-H2B inh,3.0,3.9,-1.8,-5.0,-1.2,-1.5,-0.3,-0.2

(41) O=C(c1cc(Cl)ccc1Cl)N1CCN(c2ccccn2)CC1
(42) CCN(CC(=O)NCc1cccs1)C(=O)/C=C/c1cccc(Cl)c1Cl
(43) NC(=O)C1(N2CCCCC2)CCN(CC(=O)Nc2cc(Cl)ccc2Cl)CC1
(44) CC(Nc1oc(-c2ccco2)nc1C#N)c1ccccc1 (stereo not drawn)
(45) COc1ccccc1N1CCN(c2ncnc3nc[nH]c23)CC1
(46) O=C(COC(=O)c1cccnc1Cl)NCc1cccs1
(47) CNc1nnc(-c2ccc(OC)cc2)s1
assay / entry,41,42,43,44,45,46,47
Beta2AR agonist,-14.5,4.1,4.2,14.1,-1.9,-2.5,9.3
T cruzi repl,-1.9,0.3,-3.7,4.7,-0.6,4.9,6.5
Beta cell apopt,8.9,-2.7,·,0.5,-1.3,-11.2,0.4
Calb FLC,-17.2,-2.7,1.0,-1.7,3.0,24.1,21.2
Ecoli rRNA inh,-5.2,1.6,15.9,·,7.3,10.9,9.1
Ecoli rRNA inh OD600,0.4,5.4,7.8,·,9.7,3.7,4.1
Ecoli rRNA inh RFP,-0.2,-2.2,3.1,·,1.2,0.8,1.4
ALR inh,1.7,3.8,·,26.0,29.1,-0.3,-4.4
Bfl-1 A1 inh,0.0,0.8,·,0.0,-0.3,1.1,-11.1
LANA-H2B inh,1.5,-1.1,·,4.0,0.1,6.2,-0.4
